Assay outcomes as filed in PubChem BioAssay.
Rce1 inh = yeast Ras-converting enzyme inhibition | Q03530 | actives 0.27% (n = 290,000) | calls only | yeast membranes, quenched prenylated peptide cleavage fluorescence;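 active = fall in fluorescence gain of 50% or more versus controls, with final raw signal at or below 3038400; inconclusive = same 50% fall but final raw signal above 3038400; inactive = fall in fluorescence gain under 50%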;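 also: plate controls were neutral control wells for no effect and wells lacking membranes for full effect; tested at 10 µM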
Target sequence (Q03530 whole entry, looked up): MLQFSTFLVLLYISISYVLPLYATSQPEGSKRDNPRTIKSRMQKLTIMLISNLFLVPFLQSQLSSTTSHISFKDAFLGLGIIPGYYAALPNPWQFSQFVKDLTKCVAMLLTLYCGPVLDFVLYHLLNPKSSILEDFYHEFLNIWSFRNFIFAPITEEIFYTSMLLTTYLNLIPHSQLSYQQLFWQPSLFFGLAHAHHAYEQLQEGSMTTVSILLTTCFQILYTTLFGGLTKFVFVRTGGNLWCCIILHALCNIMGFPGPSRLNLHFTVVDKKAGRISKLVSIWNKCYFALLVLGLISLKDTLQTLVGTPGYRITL
PABP polyA inh = blocks human PABP binding to poly(A) RNA. P11940. fluorescence polarization. inhibition, % at 35 µM. actives 1% (n = 290,000);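 active = 50% or more with normal probe brightness, or confirmed in later tests; inconclusive = above 50% with abnormal brightness, or retests that disagree; inactive = below 50% or failed in later tests; about a fifth of its hits are not listed in these tables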;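 also: calls also rest on retests at 20 µM and on dose response follow-up; controls were probe without protein and protein plus probe with vehicle; some compounds called inactive have numbers as strong as hits; many hits fall short of the cut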
Target sequence (P11940 whole entry, looked up): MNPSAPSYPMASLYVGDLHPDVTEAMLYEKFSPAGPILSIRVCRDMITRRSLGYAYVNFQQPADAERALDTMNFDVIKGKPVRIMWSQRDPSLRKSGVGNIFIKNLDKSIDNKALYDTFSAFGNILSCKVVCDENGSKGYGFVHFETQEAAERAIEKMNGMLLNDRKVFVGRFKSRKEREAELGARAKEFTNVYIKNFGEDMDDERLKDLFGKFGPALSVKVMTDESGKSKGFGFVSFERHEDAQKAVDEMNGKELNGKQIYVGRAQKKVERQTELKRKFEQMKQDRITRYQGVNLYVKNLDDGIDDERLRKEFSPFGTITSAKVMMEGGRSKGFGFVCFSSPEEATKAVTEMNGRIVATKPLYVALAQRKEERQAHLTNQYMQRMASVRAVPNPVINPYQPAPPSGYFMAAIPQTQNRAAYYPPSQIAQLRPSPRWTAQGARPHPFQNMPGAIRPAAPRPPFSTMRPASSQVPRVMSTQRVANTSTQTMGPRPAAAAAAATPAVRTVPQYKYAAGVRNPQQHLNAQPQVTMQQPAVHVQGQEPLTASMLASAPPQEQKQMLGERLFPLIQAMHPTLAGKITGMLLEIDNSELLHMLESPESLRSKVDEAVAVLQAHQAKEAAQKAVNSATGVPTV
eIF4H FP inh = inhibitors of RNA binding by human eIF4H | eIF4H fluorescence polarization binding assay | inhibition, % at 35 µM | Q15056 | actives 0.94% (n = 290,000);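 active = 50% or more with normal probe brightness, or confirmed in later tests; inconclusive = above 50% with abnormal brightness, or retests that disagree; inactive = below 50% or failed in later tests; about a fifth of its hits are not listed in these tables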;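 also: calls also rest on retests at 20 µM and on dose response follow-up; 0% = protein and probe with vehicle and 100% = probe without protein; strong numbers were not always called active; many hits fall short of the cut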
CSC inhib = blocks cancer stem cells. cancer stem cell-like cells viability, luminescence. inhibition, % at 7.5 µM. actives 1.1% (n = 300,000). AID 2717;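 active = mean at 75% or more and at least half the replicates too; inconclusive = mean and replicates disagree; tested in HMLE shEcad cells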;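 also: 0% = median of negative and 100% = median of positive control wells; the first replicate is given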
HIV Env fusion = inhibitors of HIV Env-mediated cell fusion; HeLa-JRFL Env/CEM21 cell fusion, luciferase; inhibition, % at 12.3 µM; actives 1.1% (n = 360,000); AID 651610;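 active = mean replicate inhibition score of at least 50 and every replicate individually at or above 50; inconclusive = only one of the two criteria met; inactive = mean below 50 and not all replicates reaching 50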;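 also: 0% = plate neutral controls and 100% = maraviroc near 300 nM; one replicate is shown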
MT1-MMP act inh = MT1-MMP (human) activation inhibition; AID 651647; GFP/RFP ratio change, % at 20 µM; HT1080 RFP-PRO-GFP cells, GFP/RFP ratio fluorescence, overnight; percent of plate control window, DMSO zero; actives 0.061% (n = 360,000);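 active = GFP/RFP ratio change of at least 30% with cell ATP level not reduced by more than half and red fluorescence within 50% of control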; also: strong numbers were not always called active
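Assay system: HT1080 cells carrying an RFP-PRO-GFP reporter | Dosing: Single dose of 20 µM compound, 1% DMSO final | Incubation: Cells overnight before dosing, compound overnight, 37 °C, 5% CO2 | Evaluation: GFP/RFP fluorescence ratio | Control set: DMSO and RFP-L50D-GFP cell wells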
UUG fidelity = modulators of start codon recognition fidelity in yeast | S. cerevisiae UUG-firefly luciferase reporter, luminescence/redox ratio | activity score, % at 18.7 µM | actives 0.13% (n = 350,000);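 active = replicate mean at a twofold rise or more, about +100% in these data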;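 also: firefly luciferase made from a UUG start codon reports start codon fidelity; reporter light over untreated wells divided by growth signal over untreated wells; some hits fall short of that in this replicate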
MT1-MMP act inh RFP = also measured in MT1-MMP act inh; calls as there; RFP signal change, %; measured here: RFP expression control read;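 0 = vehicle wells; hits needed this value within 50% of zero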
Numbers without * were called inactive; i = inactive; ? = inconclusive; · = not tested or not shown.

Results follow in this order: Rce1 inh	PABP polyA inh	eIF4H FP inh	CSC inhib	HIV Env fusion	MT1-MMP act inh	MT1-MMP act inh RFP	UUG fidelity
1: Cc1nn(C)c(Sc2ccccn2)c1[N+](=O)[O-]
    i	-2.6	-4.1	-15.6	12.9	8.6	0.7	12.9
2: CCOc1ccccc1/C=C\c1nc(O)c([N+](=O)[O-])c(=O)[nH]1
    i	15.2	-9.3	-4.2	-34.3	3.0	3.5	3.9
3: O=S(=O)(Nc1nc2ccc(S(=O)(=O)N3CCCCC3)cc2s1)c1ccccc1
    i	23.2	-9.4	-5.7	19.6	-2.1	2.0	-7.3
4: COc1ccc2ccccc2c1/C=N/Nc1ccc(Cl)c(C(=O)O)c1
    i	14.9	15.3	9.5	-23.0	1.4	9.6	-18.6
5: CC1CCN(C(=S)c2ccc(O)cc2)CC1
    i	4.9	-0.2	2.4	-32.7	2.3	5.7	-22.6
6: O=C(CCS(=O)(=O)c1cccc2nonc12)N1CCOCC1
    i	6.8	0.0	-19.1	-21.5	0.1	-1.0	-6.7
7: COc1cccc(/C=C/C(=O)OCC(=O)Nc2nnc(-c3ccccc3)o2)c1
    i	·	·	-3.3	·	2.5	5.8	-19.3
8: Cc1nnc(C)n1/N=C/c1c(O)ccc2ccccc12
    i	-4.0	-9.1	-12.4	-17.1	-1.1	-0.2	5.5
9: CCC(=O)NC(/C=C/c1ccccc1)c1cc([N+](=O)[O-])c2cccnc2c1O (centres undefined)
    i	-1.0	?	151.1*	·	·	·	·
10: O=C(Nc1ccccc1[N+](=O)[O-])c1cc(S(=O)(=O)N2CCOCC2)cs1
    i	-12.0	-11.3	-15.6	8.3	-0.6	0.4	-15.9
11: CC(C)COc1ccc(C(=O)N/C(=C\c2cccc([N+](=O)[O-])c2)C(=O)OC(C)C)cc1
    i	-8.4	-6.1	14.0	·	-6.3	-10.8	-3.9
12: CCc1c(C)sc(NC(=O)C2CCCO2)c1C#N (centres undefined)
    i	-2.1	-4.1	-6.5	-89.7	-2.5	0.5	-16.2
13: COc1ccc(CCNC(=O)c2c(O)c3cccc4c3n(c2=O)CC4)cc1
    i	-1.0	7.6	32.5	·	-4.1	-0.8	-4.4
14: N#Cc1ccc(C(=O)Nc2cc(S(=O)(=O)N3CCCC3)ccc2OCC(F)(F)F)cc1
    i	-0.1	0.7	0.1	-106.2	0.1	0.2	-8.9
15: O=C(COc1ccccc1)NCC(=O)NC1=NCCS1
    i	-9.8	-5.2	-5.8	·	3.5	6.4	-19.5
16: CC(Sc1cccc[n+]1[O-])c1ccccc1 (centres undefined)
    i	3.3	-3.7	7.2	4.2	0.9	0.6	46.5
17: COc1cc(OC)c(/C=N/N2CCN(c3ccccc3OC)CC2)c(OC)c1
    i	-0.4	-2.6	3.9	-14.8	-2.4	-3.5	-8.9
18: CCOC(=O)N1CCN(CC(O)COc2ccc(C)cc2C(C)(C)C)CC1 (centres undefined)
    i	-6.5	21.9	-1.2	12.4	1.7	-8.7	·
19: CCOC(=O)c1sc(N(Cc2ccccc2)C(=O)CCl)nc1C
    i	3.6	-1.3	8.9	5.2	1.7	-4.0	-16.7
20: C=CCNCc1ccccc1[N+](=O)[O-]
    i	·	·	-10.4	3.4	3.0	3.4	-11.6
21: CCc1cc2c(=O)nc3n(c2s1)Cc1ccccc1/C3=C(/O)c1ccc(F)cc1
    i	79.6*	70.8*	80.7*	·	-23.0	0.7	18.1
22: O=C(COc1cccnc1[N+](=O)[O-])NCc1ccccc1
    i	10.6	6.2	0.8	6.6	-1.0	-2.3	-10.1
23: O=C(Nc1ccccc1OC(=O)c1ccc(Cl)cc1)c1ccc(Cl)cc1
    i	0.1	-1.0	-2.0	·	-1.0	-3.8	·
24: CCNS(=O)(=O)c1ccc2c(c1)NCC2
    i	4.6	4.6	-9.8	·	1.2	5.7	·
25: CC1(C)Cc2ccccc2C(N/N=C/c2ccc(Cl)cc2)=N1
    i	-7.8	-7.4	0.7	·	-1.9	-1.3	·
26: CN(c1ccc(OCC(=O)NC2CCC(O)CC2)cc1)S(=O)(=O)c1ccc(Cl)cc1 (centres undefined)
    ·	·	·	·	-15.3	4.0	-5.3	-2.2
27: Cc1ccc(N(C)C(=O)N2CCN(S(=O)(=O)c3ccc(C)c(C)c3)CC2)cc1
    i	2.6	-7.2	0.3	29.9	-0.1	1.3	-8.2
28: Cc1ccc(Cl)c(NC(=O)CN2CCNC(=O)C2)c1Cl
    i	24.8	-3.5	-22.5	-12.6	-1.4	-1.6	-5.5
29: CN(C)Cc1ccc(CNC(=O)c2ccc(Cl)c(S(=O)(=O)NC3CC3)c2)cc1
    ·	·	·	16.0	-10.5	-3.3	0.5	-17.5
30: O=C(Cn1ccc(NC(=O)OCc2ccccc2)nc1=O)NCCc1c[nH]c2ccccc12
    ·	·	·	-4.0	11.6	2.9	2.9	-28.1
31: CCCCNC(=S)Nc1ccc(Cl)cc1
    i	-7.5	-1.1	8.1	-12.7	0.4	-1.0	·
32: COc1cccc(S(=O)(=O)c2nc(C)c3c(n2)CCC3)c1
    i	4.8	14.0	-1.9	11.6	-1.0	-0.5	·
33: Cc1ccc(NCCCn2ccc(NC(=O)OCc3ccccc3)nc2=O)cc1C
    ·	·	·	·	-0.9	-0.8	-3.9	11.6
34: CN(C(=O)CSc1nnc(-c2ccc(F)cc2)c2ccccc12)C1CCS(=O)(=O)C1 (centres undefined)
    i	-0.5	4.9	-15.5	10.8	4.6	0.4	-10.3
35: COc1ccc(NC(=O)c2nnn(CC(=O)Nc3ccc4c(c3)OCO4)c2N)c(OC)c1
    i	4.0	-1.6	1.2	-6.6	0.4	2.6	-7.8
36: O=C(NNC(=O)[C@@H]1CCCC[C@@H]1C(=O)O)Nc1ccccc1
    i	0.9	0.1	-8.8	-6.3	2.1	3.5	·
37: Cc1c(C(=O)Oc2cccc3cccnc23)oc2ccccc12
    i	4.1	3.6	4.5	-16.8	0.3	3.4	6.7
38: Cc1cc(NC(=O)CCCn2cc([N+](=O)[O-])cn2)n(Cc2ccc(F)cc2)n1
    i	-5.5	4.4	10.6	4.0	-2.0	-3.2	·
39: CSc1nc(Sc2cccc(Cl)c2)c2ccccc2n1
    i	-4.8	0.1	-3.8	·	-14.2	-10.1	-22.0
40: Cc1cc(N2C(=O)C(O)=C(C(=O)c3ccco3)C2c2cccc(Cl)c2)no1 (centres undefined)
    i	23.2	-7.3	-5.8	2.0	-3.3	0.8	-11.5
41: CCOCCCNC(=O)C(NC(=O)Cc1cccs1)c1ccc(C)cc1 (centres undefined)
    i	-11.0	-10.8	-14.4	6.4	·	·	·
42: CCOc1ccc(-n2nc3c(=S)[nH]nc(C)c3c2C)cc1
    i	4.1	16.2	1.5	·	2.4	1.9	·
43: O=S(=O)(c1ccc2ccccc2c1)N1CCOCC1
    i	4.3	-3.7	·	11.1	-1.6	-0.3	·
44: Cc1cc(-c2csc(NC(=O)C3=COCCO3)n2)c(C)n1C
    i	·	·	-8.7	-6.0	-1.8	4.9	-11.3
45: Cc1cccc(NC(=O)CCCN=C2NS(=O)(=O)c3ccccc32)c1C
    ·	·	·	-4.1	-23.2	-2.3	1.9	·
46: Cc1cc(C)nc(SCc2nc3ncccn3c2Br)n1
    i	-0.7	-4.6	-11.9	·	-1.4	-0.6	-1.1
47: COc1ccc(C)cc1S(=O)(=O)N(C)CC(=O)NC1CC1
    ·	5.5	5.7	2.4	-18.7	-3.7	4.8	-14.7
48: Cc1ccc(NC(=O)CCC(=O)NNC(=O)c2cccs2)c(C)c1
    i	-1.4	-6.7	-3.8	-6.1	0.0	1.7	-22.5
49: COc1ccc(C(=O)O/N=C(/c2cccs2)C(C)(C)C)cc1
    i	-0.4	5.3	-6.7	7.7	-1.2	1.6	10.0
50: CCCCOc1ccc(CN=C(N)N)cc1Cl
    i	9.0	-10.8	17.7	-1.3	-5.3	-15.0	·
51: CCOC(=O)c1[nH]c(C)c(C(=O)OCC(=O)NC(=O)NC(C)(C)C)c1C
    i	2.1	-4.1	-0.6	-5.1	6.7	-2.8	-9.9
52: OC(CN1C2=NCCCN2c2ccccc21)c1ccc2c(c1)OCO2 (centres undefined)
    i	-3.1	-7.9	-1.4	·	-1.4	-0.5	-12.1
53: CC(O)c1nc(C(C)O)n(CC(=O)c2ccccc2)n1 (centres undefined)
    i	·	·	-3.7	18.4	-0.2	5.6	-12.8
54: CC(C)(C)c1ccc(S(=O)(=O)NCC(=O)N2CCN(C(=O)c3ccco3)CC2)cc1
    i	9.3	1.1	-12.4	14.5	10.0	-1.6	6.8
55: CCNC(=O)CSc1nc2ccccc2c(=O)n1-c1cccc(OC)c1
    i	0.0	-4.1	2.1	4.6	0.9	2.4	·
56: O=C(CN1CCN(c2ccc(Cl)cc2)CC1)Nc1ccc(F)c(F)c1
    i	-5.5	-2.5	11.2	·	1.1	-1.9	-8.5
57: Cc1ccc(NS(=O)(=O)c2ccc3c(c2)NC(=O)C(C)C(=O)N3)cc1C (centres undefined)
    i	-6.1	-18.0	10.6	-7.5	7.8	2.7	-7.3
58: CCOc1ccc(NC(=O)c2c(N)n(C)c(=O)[nH]c2=O)cc1
    i	·	·	-1.7	-24.7	6.1	2.6	-6.9
59: Cc1ccc(N(C(=O)C2COc3ccccc3O2)C(C(=O)NC2CCCCC2)c2cn(C)nc2C)cc1 (centres undefined)
    i	-15.5	3.8	-9.9	·	·	·	·
60: Cc1cc(C)n2nc(C(=O)Nc3cccc(S(=O)(=O)N(C)c4ccccc4)c3)nc2n1
    i	-0.5	-1.7	-6.0	-2.5	-1.8	2.2	·

(list continues)
Results follow in this order: Rce1 inh	PABP polyA inh	eIF4H FP inh	CSC inhib	HIV Env fusion	MT1-MMP act inh	MT1-MMP act inh RFP	UUG fidelity
61: O=C(CN1CCN(c2ccccc2F)CC1)c1ccc2c(c1)OCO2
    i	0.7	-13.0	6.3	·	3.4	6.7	-1.7
62: O=C(c1ccccn1)N1CCCC(N2CCN(Cc3ccc4c(c3)OCO4)CC2)C1 (centres undefined)
    i	-3.6	-10.9	-4.3	·	-2.4	-0.6	-23.3
63: Brc1ccc(CN2CCN(Cc3c[nH]c4ccccc34)CC2)cc1
    i	-3.0	-5.7	6.4	18.3	-1.1	2.3	-12.3
64: COc1cccc(OC)c1C(=O)Nc1c(C)n(C)n(-c2ccccc2)c1=O
    i	9.9	-11.6	-4.5	·	1.6	-4.1	-9.2
65: Cc1ccc(OCC(=O)NC2CC(C)(C)NC(C)(C)C2)cc1C
    i	-10.3	-5.1	6.4	12.2	7.5	5.4	4.1

Rows are unselected; 3% or so of the library scored in one or more.
